Assay outcomes from PubChem BioAssay.
GLA inh pH 4.5: qHTS Assay for Inhibitors of Human alpha-Galactosidase at pH 4.5; purified enzyme, 4-MU-alpha-Gal fluorescence, pH 4.5; activity change, negative = inhibition, % at 105 µM; 230,000 tested, under 10 active; inconclusive = small, poorly fitted or top-dose-only inhibition, or a rising curve; inactive = flat fitted curve, though single readings scatter; no compound was filed as active;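 further: 0% = full activity with enzyme and -100% = basal without enzyme; dose as in the result columns while the protocol names 77 µM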
Rango dissoc inh: qHTS Assay for Inhibitors of RanGTP induced Rango (Ran-regulated importin-beta cargo) - Importin beta complex dissociation. AID 540253, 2011. Potency, µM (series often up to 46.1 µM), without a hit: at the highest dose activity change, negative = inhibition. 340,000 compounds, 0.071% hits. Biochemical FRET Rango-importin beta, RanGTP-induced dissociation; active means falling FRET ratio curve, often poorly fitted, with flat reads before Ran was added; inconclusive means other falling curves, or compound fluorescence or quenching; inactive means flat or rising ratio curve;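 further: potency means the concentration at half of the fitted maximal effect; % of control where 0% means no effect; nearly all actives have a fitted effect of over 45% in size; -100% = wells without RanGTP and RCC1; the record marks most hits as doubtful in a second field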
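Two FRET readings bracket the reaction: one 5 min after compound meets Rango–importin beta, another 45 min after RanGTP-RCC1 (0.6 uM Ran, 0.2 uM RCC1, 2 mM GTP) is added. Only the second defines inhibition.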
Rango complex inh: qHTS Assay for Inhibitors of Rango (Ran-regulated importin-beta cargo) - Importin beta complex formation. Importin subunit beta-1 (Homo sapiens), Q14974. Rango CFP/YFP FRET sensor + importin beta, 45 min. Potency, µM (top dose mostly 92.2 µM), for the others: top-dose inhibition of complex formation. 340,000 compounds, 0.031% hits. AID 540263, 2011; active = rising FRET ratio curve, often small or poorly fitted; inconclusive = mostly compound fluorescence or quenching in the first reads; inactive = flat curves in all reads;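 further: potency means the concentration at half of the fitted maximal effect; 0% = DMSO wells and 100% = buffer wells lacking importin beta; nearly all actives have a fitted effect of over 15% in size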
Target sequence (Q14974 whole entry, looked up): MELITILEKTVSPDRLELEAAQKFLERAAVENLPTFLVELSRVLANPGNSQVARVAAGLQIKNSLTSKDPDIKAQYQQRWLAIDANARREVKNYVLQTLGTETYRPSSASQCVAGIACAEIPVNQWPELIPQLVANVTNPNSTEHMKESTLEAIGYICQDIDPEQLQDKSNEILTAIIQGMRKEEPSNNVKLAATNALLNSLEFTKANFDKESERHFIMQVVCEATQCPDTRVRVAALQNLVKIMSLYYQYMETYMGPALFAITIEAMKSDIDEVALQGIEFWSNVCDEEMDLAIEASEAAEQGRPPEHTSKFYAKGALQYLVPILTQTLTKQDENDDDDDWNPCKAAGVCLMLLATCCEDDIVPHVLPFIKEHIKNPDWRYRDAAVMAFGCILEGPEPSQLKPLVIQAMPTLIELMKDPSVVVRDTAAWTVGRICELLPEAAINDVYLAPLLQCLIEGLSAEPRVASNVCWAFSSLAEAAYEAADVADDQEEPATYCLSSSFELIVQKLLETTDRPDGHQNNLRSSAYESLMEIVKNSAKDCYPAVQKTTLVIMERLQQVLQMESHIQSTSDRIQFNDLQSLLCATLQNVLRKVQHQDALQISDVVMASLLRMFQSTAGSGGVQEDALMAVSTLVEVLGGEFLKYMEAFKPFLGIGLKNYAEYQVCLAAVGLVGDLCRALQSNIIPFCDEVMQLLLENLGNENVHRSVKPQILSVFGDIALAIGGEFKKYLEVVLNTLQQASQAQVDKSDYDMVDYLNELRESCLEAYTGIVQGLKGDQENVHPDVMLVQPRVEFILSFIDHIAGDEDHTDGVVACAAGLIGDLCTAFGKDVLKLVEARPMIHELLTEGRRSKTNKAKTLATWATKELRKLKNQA
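FRET biosensor Rango (snurportin 1 IBB between N-terminal EYFP and C-terminal Cerulean), 50 nM in PBS/1 mM DTT/0.02% Tween-20/0.1% BSA, preincubated 5 min RT with compound; 0.125 microM importin beta added, 45 min RT, CFP/YFP FRET ratio read.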
miR-21 FLuc: qHTS Assay for Modulators of miRNAs and/orActivators of miR-21 | 340,000 tested, under 10 active | HeLa miR-21 FLuc reporter, luciferase, 48 h | Potency, µM (titrated, usually from 38.3 µM), for inactives: top-dose reporter change, positive = more light | AID 2288, 2010; active = well fitted rising curve with a large enough effect; inconclusive = small, poorly fitted or top-dose-only effect; inactive = no such curve, though single readings can be large or run the other way;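 further: % of control where 0% means no effect; miR-21 action dims this reporter so a rising signal means less miR-21 action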
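Using DMEM plus 10% FBS, HeLa miR-21-FLuc cells are incubated with test compounds (final up to about 40uM) for 48 hours; firefly luciferase signal is then imaged following reagent-mediated lysis.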
* = called active by the depositor; ? = inconclusive; · = not tested or not shown. Only part of the results is shown (hit frequency here may not be typical).

item	GLA inh pH 4.5	Rango dissoc inh	Rango complex inh	miR-21 FLuc	Structure
1	·	-2%	-5.7%	·	COc1ccccc1NC(=O)C(C)OC(=O)c1nc2nc(C)cc(C)n2n1 (stereo not given)
2	-6	-23%	-6.7%	0%	CCOC(=O)c1c(NC(=O)c2ccc(Cl)s2)sc(C)c1C
3	1	1%	1.0%	1%	Cc1ccc(S(=O)(=O)N(C)C)cc1NC(=O)CCc1c[nH]c2ccccc12
4	1	-6%	-1.9%	-8%	Cc1ccc(C)c(NC(=O)c2ccccc2O)c1
5	6	-1%	0.0%	2%	Cc1cccc(Oc2ccc(NC(=O)c3ccccc3C(=O)O)cc2)c1
6	·	6%	-0.9%	5%	O=C(Nc1nnc2n1CCS2)c1ccc(Br)o1
7	·	-9%	-0.9%	·	CCCCn1c(N)c(N(CCOC)C(=O)c2cccc(S(=O)(=O)N3CCCCC3)c2)c(=O)[nH]c1=O
8	·	-6%	?	6%	CCC(NC(=O)C1CCCC1)c1ccc(C)cc1 (stereo not given)
9	·	8%	0.7%	·	CCN1CCN(c2ccc(S(=O)(=O)N3CCOCC3)cc2NC(=O)c2ccc(F)cc2Cl)CC1
10	·	-18%	0.6%	5%	Cc1cc(C)cc(NC(=O)CSc2ccc(-c3ccccn3)nn2)c1
11	·	13%	-0.2%	·	Cc1ccccc1N1CCN(CC(=O)Nc2ccccc2C(=O)NC2CC2)CC1
12	-6	-1%	-1.9%	-2%	CCCN(CCC)CC(O)COc1ccccc1C(=O)Nc1ccccc1 (stereo not given)
13	·	15%	8.9%	-8%	CN(Cc1ccccc1)c1nc2c(c(=O)[nH]c(=O)n2C)n1Cc1ccccc1F
14	0	1%	-1.2%	-4%	O=C(NCc1cccs1)C1CCN(c2nccs2)CC1
15	-3	1%	-0.2%	8%	COC(=O)[C@H](CCSC)NS(=O)(=O)c1ccccc1Br
16	2	8%	0.3%	-4%	O=C(CSCc1ccc(Cl)cc1)NCc1ccc2c(c1)OCO2
17	-6	-7%	0.1%	-22%	Nn1cnnc1SCC(=O)Nc1ccc2c(c1)OCCO2
18	3	·	·	-3%	O=c1c2ccccc2c(C=Nc2ccc(S(=O)(=O)Nc3ncccn3)cc2)c(O)n1-c1cccc(Cl)c1
19	-7	-3%	-0.5%	-1%	CCOC(=O)c1sc(=S)n(CC)c1NC(=O)C1CC1
20	-7	-14%	-1.2%	-5%	Cc1nn(CC(=O)Nc2ccc3c(c2)nc2n3CCOC2)c(=O)c2ccccc12
21	-5	20%	-0.1%	14%	O=C(CSc1nnc(Cc2cccs2)n1Cc1ccco1)Nc1ccc(Cl)cc1Cl
22	·	3%	5.3%	0%	O=C(O)c1ccc2c(=O)n3c(nc2c1)/C(=C/c1ccccc1Br)CC3
23	12	29%	-0.3%	-5%	CCNCc1cc(Cl)cc(OC)c1OC(C)C
24	-1	1%	-1.6%	?	S=C(NCCc1ccc(Cl)cc1)Nc1ccc(Cl)cc1Cl
25	8	0%	-3.1%	-13%	c1ccc2c(c1)CCN(c1ncnc3nc[nH]c13)C2
26	7	-2%	-1.0%	?	Fc1ccc(CCNC(=S)Nc2ccc(F)c(Cl)c2)cc1
27	1	-6%	2.5%	-5%	CCc1nnc(NC(=O)C2CC(=O)N(c3ccc(C)cc3)C2)s1 (stereo not given)
28	-5	?	?	2%	CCOC(=O)c1cc2c(N)c(C(=O)c3ccc(Br)cc3)sc2[nH]c1=O
29	3	-6%	-2.7%	-9%	O=C(Cc1ccc(Cl)cc1)NCCN1CCCC1
30	·	-13%	-0.7%	-10%	Cc1cc(C)cc(NC(=O)Cn2nnc(C(=O)NCc3cccs3)c2N)c1
31	·	13%	-0.1%	-1%	Cc1ccc(OCC(=O)NCCNC(=O)c2ccccn2)cc1
32	·	0%	3.3%	-19%	CC(C)(C)c1ccc(C(=O)NNC(=O)CCC(=O)Nc2ccccc2)cc1
33	3	6%	-0.7%	-27%	O=C(Nc1nnc(CCc2ccccc2)s1)c1cccs1
34	-4	7%	?	-2%	O=C(N1CCCCCC1)N1CCN(C(=O)N2CCCCC2)CC1
35	-1	-11%	0.6%	-7%	O=C(Cc1cccc2ccccc12)Nc1nc(-c2cccc([N+](=O)[O-])c2)cs1
36	-13	-29%	-1.4%	-4%	N#CC1=C(O)C(c2ccccc2)n2c1nc(=O)c1ccccc12 (stereo not given)
37	·	-10%	1.0%	-15%	CC(C)CCOc1ccc(C(=O)NCC(c2ccco2)N(C)C)cc1 (stereo not given)
38	·	22%	1.0%	·	O=C(COC(=O)c1cccc(F)c1)NCCC1=CCCCC1
39	3	21%	-5.1%	-11%	Cc1sc(NC(=O)CCCC(=O)O)c(C#N)c1C
40	·	-2%	-0.1%	·	CCN(CC(=O)Nc1ccc(NC(C)=O)cc1)C(=O)COc1ccc2ccccc2c1
41	-4	15%	-6.6%	3%	N#C/C(=C\c1ccc[nH]1)S(=O)(=O)c1ccccc1
42	7	25%	2.2%	5%	Cc1ccc(C2NC(=S)NC3=C2N2CCC3CC2)cc1 (stereo not given)
43	0	·	·	-1%	O=C(NCc1cccnc1)C(=O)Nc1nccs1
44	·	-11%	-0.5%	·	COc1ccc(C(=O)C(C)Sc2nnc(C3CC3)n2C2CC2)cc1 (stereo not given)
45	0	-9%	-0.2%	0%	O=C(COC(=O)c1cccc(S(=O)(=O)N2CCc3ccccc32)c1)NC1CCS(=O)(=O)C1 (stereo not given)
46	·	-11%	-1.0%	-15%	Cc1c(/C=C2\NC(=O)NC2=O)c2ccccc2n1C
47	·	-7%	3.8%	·	Cc1csc(CNc2ncnc3ccc(-c4cccc(Cl)c4)cc23)c1
48	-10	8%	2.2%	-12%	CNc1ccc(S(=O)(=O)NCC(=O)OCC(=O)Nc2cccc(Cl)c2Cl)cc1[N+](=O)[O-]
49	-6	6%	0.6%	6%	COC(=O)c1ccc(Cn2c(C)cc(C)[n+]2C)o1
50	5	?	?	-1%	CCOc1cc(C2C(C(=O)OC)=CN(C3CCCC3)C=C2C(=O)OC)cc(Br)c1O
51	-18	3.7µM*	?	28%	CCOc1cccc(/C=N/NC(=S)Nc2cc(S(=O)(=O)N3CCOCC3)ccc2N2CCOCC2)c1O
52	·	-6%	-0.3%	1%	O=C(CN1C(=O)CCSc2ccc(S(=O)(=O)N3CCCC3)cc21)NCc1ccccc1Cl
53	9	-25%	?	-24%	COc1cccc(-c2nc3ccccc3s2)c1O
54	-1	0%	-2.4%	-4%	COc1cc(/C=C(\NC(=O)c2ccccc2)C(=O)N2CC3CC(C2)c2cccc(=O)n2C3)cc(OC)c1OC (stereo not given)
55	-15	6%	-3.5%	3%	Cc1cc(Cl)c2ccccc2n1
56	·	-10%	-1.4%	-16%	CCOC(=O)N1CCN(C(=O)/C=C/c2ccc(OC)cc2)CC1

Next records:
item	GLA inh pH 4.5	Rango dissoc inh	Rango complex inh	miR-21 FLuc	Structure
57	·	51%	-5.9%	-2%	O=C(Cn1cnc([N+](=O)[O-])c1)Nc1ccc(F)c(Cl)c1
58	·	24%	0.1%	4%	O=C(c1ccc(Cl)cc1)N1CCN(CCOc2ccccc2)CC1
59	·	17%	-0.4%	·	Cc1ccnc2nc(C(=O)OCC(=O)NC3CCCC(C)C3C)nn12 (stereo not given)
60	·	-8%	-0.5%	-41%	COc1ccc(COc2ncnc3ccc(Br)cc23)cc1F
61	8	0%	2.6%	-29%	Cc1ccc(CN=c2c([N+](=O)[O-])nn(-c3ccc(Cl)cc3)n2O)cc1
62	-1	2%	3.0%	-1%	O=C(COc1ncnc2ccccc12)NCc1ccco1
63	-6	6%	-2.8%	-33%	COc1ccc(-c2nn3c(-c4ccccn4)nnc3s2)cc1OC
64	-2	-2%	1.7%	-2%	C1CN(CC23CC4CC(CC(C4)C2)C3)CCO1
65	-6	-11%	2.8%	-1%	CCCSc1ncccc1C(=O)O
66	·	14%	-3.0%	0%	Cc1ccc(N2C(=O)CC(N3CCN(S(=O)(=O)c4ccccc4)CC3)C2=O)c(C)c1 (stereo not given)
67	·	?	0.2%	·	CC1(C)NC(=O)N(CC(=O)N2CCN(c3cccc(C(F)(F)F)c3)CC2)C1=O
68	9	-5%	4.2%	1%	O=C(OCC(=O)N1CCN(C(=O)c2ccco2)CC1)c1ccccc1C(=O)c1ccc(Cl)cc1
69	-2	0%	3.4%	?	Cc1cc(C)cc(NC(=O)Nc2ccc(-n3ccc(C(F)(F)F)n3)cc2)c1
70	1	-13%	3.4%	0%	COC(=O)c1c(NC(=O)CN2CCN(c3ccccc3Cl)CC2)sc(C)c1C
71	-2	0%	-4.3%	-2%	COC(=O)[C@H](C)NC(=O)NC1CCN(Cc2ccccc2)CC1
72	·	7%	-1.1%	16%	Cc1ccccc1NS(=O)(=O)c1ccc(C(=O)N2CCN(c3ccccc3O)CC2)cc1
73	1	-2%	-1.6%	-2%	Cc1noc(C)c1COc1ccc(C(=O)OCC(=O)c2ccc3c(c2)OCCO3)cc1
74	-4	-13%	-0.6%	-32%	Clc1ccc2[nH]c3c(NCCN4CCOCC4)ncnc3c2c1
75	-2	2%	0.6%	6%	CCCCCCC1CCC(C(=O)N2CCOCC2)CC1 (stereo not given)
76	-7	19%	0.4%	-52%	Fc1ccc(-c2nc(-c3cccs3)no2)cc1
77	-4	-6%	-1.1%	16%	Cc1nc([N+](=O)[O-])c(Br)n1CC(=O)c1ccc(F)cc1
78	·	1%	-1.9%	·	NS(=O)(=O)c1ccc(CCNC(=O)c2cc([N+](=O)[O-])ccc2N2CCOCC2)cc1
79	·	-23%	3.9%	-3%	C[C@H]1CN(Cc2ccccc2)C(=O)[C@@H]1CC(=O)NCc1ccccc1
80	·	0%	?	10%	CCCCn1c(C2CCCCC2)nc2cc3[nH]c(=O)c(C(C)C)nc3cc21
81	-8	3%	-1.5%	-6%	CCOC(=O)C(C(=O)OCC)C1CS(=O)(=O)CC1C(C(=O)OCC)C(=O)OCC (stereo not given)
82	15	-20%	2.9%	7%	CCOC(=O)N1CCC(NC(=O)C2CCN(C(=O)N3CCOc4ccccc43)CC2)CC1
83	-1	-17%	-4.1%	-8%	CC(=O)c1cc(C#N)c(N2CCCCC2)nc1C
84	·	-9%	3.5%	2%	O=C(O)c1ccccc1C(=O)c1cccc2ccccc12
85	·	2%	0.9%	-1%	COc1ccc(C2NC(=O)CCC2[N+](=O)[O-])c(OC)c1OC (stereo not given)
86	-1	-11%	-3.9%	2%	CCOC(=O)C1=C(C)OC(N)=C(C#N)C1c1cc2c(cc1Br)OCO2 (stereo not given)
87	·	?	?	·	Cc1ccc2nc(-c3ccc(-c4cccc(Cl)c4)cc3)c(NCc3ccccc3)n2c1
88	-10	-12%	?	-4%	Cc1c(C(=O)Nc2ccncc2)sc2nc(-c3ccccc3)cn12
89	0	-12%	-0.9%	-4%	NC1=NC2(CCCCC2)N=C(Nc2ccc(F)cc2F)N1
90	2	-14%	-1.5%	-15%	CC(C)n1cnc2c(Nc3cccc(F)c3)nc(NCCO)nc21
91	·	2%	0.4%	·	COc1cc2cnc(-c3ccsc3)cc2cc1OC
92	-4	-5%	-3.6%	-4%	CCOc1ccccc1N1CC(C(=O)N2CCc3ccccc32)CC1=O (stereo not given)
93	·	-3%	0.8%	·	Cc1cccn2c(=O)nc(SCC(=O)N3CC(C)OC(C)C3)nc12 (stereo not given)
94	-4	-3%	0.1%	2%	Cc1cc(NC(=O)c2noc3c2CCCC3)nn1Cc1ccc(Cl)cc1

Among those listed so far, these contain an aryl thioether with sulfur outside any ring.
item	GLA inh pH 4.5	Rango dissoc inh	Rango complex inh	miR-21 FLuc	Structure
10	·	-18%	0.6%	5%	Cc1cc(C)cc(NC(=O)CSc2ccc(-c3ccccn3)nn2)c1
17	-6	-7%	0.1%	-22%	Nn1cnnc1SCC(=O)Nc1ccc2c(c1)OCCO2
21	-5	20%	-0.1%	14%	O=C(CSc1nnc(Cc2cccs2)n1Cc1ccco1)Nc1ccc(Cl)cc1Cl
44	·	-11%	-0.5%	·	COc1ccc(C(=O)C(C)Sc2nnc(C3CC3)n2C2CC2)cc1 (stereo not given)
65	-6	-11%	2.8%	-1%	CCCSc1ncccc1C(=O)O
93	·	-3%	0.8%	·	Cc1cccn2c(=O)nc(SCC(=O)N3CC(C)OC(C)C3)nc12 (stereo not given)
